hNpr1 antagonist: human Npr1 receptor antagonism | HEK293 hNpr1 GloSensor cGMP, ANP-stimulated luminescence | P16066 | Potency, µM (titrated, usually from 46.3 µM), inactives show at the highest dose activity change, negative = inhibition, usual class: inhibitors | AID 1347048 | hit rate 1.6% among 76,000; active = well fitted inhibition curve with a large enough effect; inconclusive = small, poorly fitted or top-dose-only effect; inactive = no such curve, though single readings can be large or run the other way;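 also: nearly all actives have a fitted effect of over 60% in size; nearly all hits also lower the signal before the agonist is added; a reference antagonist and vehicle were the controls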
Target sequence (P16066 whole entry, looked up): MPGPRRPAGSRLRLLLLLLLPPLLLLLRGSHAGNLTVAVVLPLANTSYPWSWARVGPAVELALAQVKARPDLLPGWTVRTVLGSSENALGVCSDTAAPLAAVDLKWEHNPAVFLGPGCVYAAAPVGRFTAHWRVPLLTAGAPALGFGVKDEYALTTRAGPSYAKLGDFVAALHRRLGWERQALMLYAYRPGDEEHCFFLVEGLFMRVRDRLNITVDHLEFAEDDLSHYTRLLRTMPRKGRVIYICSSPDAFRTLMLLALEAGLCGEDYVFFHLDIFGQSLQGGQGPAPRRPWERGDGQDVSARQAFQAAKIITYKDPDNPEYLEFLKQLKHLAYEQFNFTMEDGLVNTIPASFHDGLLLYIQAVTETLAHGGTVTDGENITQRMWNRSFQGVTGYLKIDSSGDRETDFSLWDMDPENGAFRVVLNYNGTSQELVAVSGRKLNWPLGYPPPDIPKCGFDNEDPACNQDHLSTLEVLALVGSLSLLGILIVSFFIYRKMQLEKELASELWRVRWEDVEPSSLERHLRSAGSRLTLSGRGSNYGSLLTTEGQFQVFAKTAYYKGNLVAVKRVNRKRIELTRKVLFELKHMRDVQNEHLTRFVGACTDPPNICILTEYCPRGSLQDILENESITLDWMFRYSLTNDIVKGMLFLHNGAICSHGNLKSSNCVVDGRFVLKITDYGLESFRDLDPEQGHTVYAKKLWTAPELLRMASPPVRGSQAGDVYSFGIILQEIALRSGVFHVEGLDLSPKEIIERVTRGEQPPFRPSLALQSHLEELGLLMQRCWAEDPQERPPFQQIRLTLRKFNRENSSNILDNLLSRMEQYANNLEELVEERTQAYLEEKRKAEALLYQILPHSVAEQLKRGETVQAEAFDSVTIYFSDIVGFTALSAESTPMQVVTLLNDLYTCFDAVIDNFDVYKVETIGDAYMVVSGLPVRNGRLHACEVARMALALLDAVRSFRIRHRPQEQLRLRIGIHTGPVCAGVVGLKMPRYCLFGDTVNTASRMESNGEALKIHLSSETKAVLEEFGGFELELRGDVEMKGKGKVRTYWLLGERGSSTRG
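Compound pre-incubated 30 min at room temperature on GloSensor-loaded HEK293 cells stably carrying hNpr1 and the pGS-40F cGMP biosensor. Stimulation uses hNppA at 0.1 nM final; luminescence is taken at baseline and 20 min post-agonist.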
Starred values were filed as active, the others as inactive; [ ] = dose if it differs, or a comment. % is scaled to controls: 0 for no effect and ±100 for the full control effect; potency is read from the fitted curve at half-maximal effect.

No. | hNpr1 antagonist | canonical_smiles
1 | 4% | Cc1nc2cc(N3CCCC(C(=O)NCCN4CCCCCC4)C3)cnc2nc1C (configuration not stated)
2 | 0% | CC(C)(C(=O)NCc1ccc(OC(F)(F)F)cc1)C1CCOCC1
3 | -1% | OCC1(Cc2ccccc2)CCCN(Cc2cnn(-c3cccc(Cl)c3)c2)C1 (configuration not stated)
4 | 2% | CCN(CC)Cc1cnc2c(C(=O)NCc3ccsc3)cnn2c1
5 | 10%[70.6 µM] | COc1ccc(CN2CCC3(C2)C(=O)N(C)c2ccccc23)cc1 (configuration not stated)
6 | 6% | CNC(=O)N1C[C@@H](CN(C)C)[C@H](NC(=O)c2ccco2)C1
7 | 8% | COc1ccc(CCC(=O)N(C)C2CCc3nnc(C)n3CC2)cc1OC (configuration not stated)
8 | 4% | Cc1cc(C)n(-c2cccc(CN3CCN(C4CCNC4)CC3)c2)n1 (configuration not stated)
9 | -3% | O=C(CC1CCCC1)N1C[C@@H](CO)[C@H](c2nc(-c3ccncc3)no2)C1
10 | 4% | CC(C)N1C[C@H](O)C[C@H]1c1nnc2n1CCN(C(=O)c1ccc3ncccc3c1)C2
11 | 5% | Cc1ccc(Cc2ccccc2C(=O)N2CCC3(CC2)CNC(=O)C3)cc1F
12 | 2% | COc1cccc(CN2CCNC(=O)C2CC(=O)NCC(N)=O)c1OC (configuration not stated)
13 | 0% | CC(C)C1c2nccn2CCCN1C(=O)Cn1c(=O)oc2ccccc21 (configuration not stated)
14 | 2% | COc1ccc(F)c(F)c1CN1CCC2(CCNCC2)C1
15 | -4% | Cc1cn2nc(C(=O)N3CCCC3)cc2c(N(C)Cc2ccccc2)n1
16 | 7% | CCN1CCN(C2(C(=O)N3CCC(COC)C3)Cc3ccccc3C2)CC1 (configuration not stated)
17 | -3% | CC1=C[C@@H](CN2CCN(CCO)CC2)[C@H](C(C)C)C[C@H]1Cc1nnc(-c2ccc([N+](=O)[O-])cc2)o1
18 | 12%[70.6 µM] | CC(=O)N1CCn2c(nn(-c3ccc(C)cc3)c2=O)C1
19 | 6% | CCCc1noc(-c2cccn3c(CNC(=O)c4cccc5[nH]ccc45)nnc23)n1
20 | 9%[70.6 µM] | COCC(=O)Nc1ccc([C@@H](O)[C@H]2COCC(=O)N2C)cc1
21 | -1% | CCn1ccnc1CN(C)C(=O)c1cc(COc2ccccc2)[nH]n1
22 | 3%[70.6 µM] | CNC(=O)C1(N2CCC[C@H]2C(=O)N2CC[C@@H](O)C2)CCCCC1
23 | -5% | COc1cccc(C(=O)NC(C(=O)N2CCCCC2)C2CCN(C(=O)c3cccs3)CC2)c1 (configuration not stated)
24 | -2% | CS(=O)(=O)NC1CCN(c2cc(C3CC(N)C3)nc(N)n2)CC1 (configuration not stated)
25 | 0% | CCCNC(=O)CCc1ccnc(N2CCOCC2)c1
26 | -13% | O=C(Nc1ccc2c(c1)CCC2)N1CCc2c(nc3cc(-c4ccccc4)[nH]n3c2=O)C1
27 | -2% | CCN(CC)C(=O)C(NC(=O)c1ccccc1)C1CCN(S(=O)(=O)c2ccc(C)cc2)CC1 (configuration not stated)
28 | 6% | CCOC(=O)c1ccc(CNC(=O)c2cn(CCCc3ccccc3)nn2)o1
29 | 3% | COCCNC(=O)[C@@H]1C[C@@H](O)CN1C1CCN(C(=O)c2ccc(C(C)C)cc2)CC1
30 | -23% | O=C(NC1CCN(c2cc(-c3ccc(F)cc3)[nH]n2)C1)c1ccccc1Cl (configuration not stated)
31 | 4% | Cc1ccc(NC(=O)C[C@H]2NC(=O)c3ccccc3NC2=O)c(Cl)c1
32 | -2% | Cc1nn(C)c(C)c1CCC(=O)N1CC2CC(C1)[C@H]1CCCC(=O)N1C2 (some centres not stated)
33 | -1% | CC(C)c1ccc(CN2CCc3nc(N(C)C)[nH]c(=O)c3CC2)cc1
34 | -2% | CN1CCCN(CC(=O)N2CCCC(c3ccc(C(=O)O)cc3)C2)CC1 (configuration not stated)
35 | -3% | COCCCNC(=O)CCCN1C(=O)COc2ccc(C(=O)COc3ccccc3C)cc21
36 | -1% | O=[S+]([O-])(NC1CCCN(c2nc3ncccc3o2)C1)c1cccc(C(F)(F)F)c1 (configuration not stated)
37 | 3% | C[C@@]1(O)CCN(C(=O)c2ccc(N3CCCC3=O)cc2)C[C@@H]1O
38 | -15% | O=C(Cc1c[nH]c2ccccc12)N1CCCC2(C1)Nc1cccnc1NC2=NC1CCCC1 (configuration not stated)
39 | 0% | COc1ccc(Cl)cc1NC(=O)CCC1CCCN(C(=O)c2ccoc2C)C1 (configuration not stated)
40 | 3% | CC(C)(C)C(=O)N1CC2(Cc3ccccc3N([S+](C)(=O)[O-])C2)C1
41 | -10% | COC(=O)C1=C(C)N=C2SC=C(CC(=O)NC3CCCCC3)N2C1c1ccsc1 (configuration not stated)
42 | 0% | Cc1ccccc1NC(=O)N1C[C@@H](F)C[C@H]1C(=O)N1CCCCC1
43 | -23%[70.6 µM] | O=C1c2cnc(-c3ccc(CO)cc3)nc2OCCN1c1cccc(C(F)(F)F)c1
44 | 1% | O=C([C@@H]1C[C@H](Oc2cccnc2)CN1C(=O)c1ccc2ncccc2c1)N1CCCC1
45 | 4%[70.6 µM] | Cc1ccc(CN[C@@H]2CO[C@H](CNS(C)(=O)=O)[C@H]2O)cc1
46 | -8%[70.6 µM] | CC1=C[C@@H](CN2CCC(C(N)=O)CC2)[C@H](C(C)C)C[C@H]1Cc1nnc(-c2cccnc2)o1
47 | -10% | CNc1cc(C2CC(NC(=O)COc3ccc(Cl)cc3C)C2)nc(N)n1 (configuration not stated)
48 | -19% | CC(C)c1noc(-c2cn(C3CCCN(C(=O)c4cccc(N(C)C)c4)C3)nn2)n1 (configuration not stated)
49 | -13% | COc1ccc(C(=O)N2C[C@@H](CO)[C@H](NC(C)=O)C2)c(OC)c1
50 | 9%[70.6 µM] | COCCNC(=O)C[C@@H]1C[C@H]2O[C@H](CNC3Cc4ccccc4C3)[C@@H](O)[C@H]2O1

(list continues)
No. | hNpr1 antagonist | canonical_smiles
51 | -7% | Cn1cnnc1CC1CCCNC1 (configuration not stated)
52 | 0% | CCOc1ccccc1NC(=O)C1CC(=O)N(c2n[nH]c3ccccc23)C1 (configuration not stated)
53 | 1% | COc1ccc(OCC2CCN(CC3(O)CCCNC3)CC2)cc1 (configuration not stated)
54 | 2%[70.6 µM] | Cc1noc2c(-c3cccc(CO)c3)cc(-c3cccs3)nc12
55 | -2% | COCCN1C(=O)c2ccccc2C(C(=O)NCc2ccccc2)C12CCCC2 (configuration not stated)
56 | -10% | COc1ccc(C(=O)Nc2nc3c(s2)C[C@@H]2[C@](C)(CO)[C@H](O)CC[C@@]2(C)[C@@H]3CC(=O)NC2CCCC2)cc1
57 | -2% | O=C(CCC1CCN(S(=O)(=O)c2ccccc2F)CC1)NCCN1CCOCC1
58 | 2%[70.6 µM] | CN1[C@@H](CCC(=O)NCc2ccccc2)CNC(=O)[C@@H]2[C@H]1CCN2Cc1cccs1
59 | -18%[70.6 µM] | CN1Cc2ccc(NCc3ccccc3)nc2C(C)(C(=O)NCc2ccccc2)C1 (configuration not stated)
60 | 11% | CNC(=O)[C@@H]1C[C@H](Oc2cccnc2)CN1C(=O)c1ccc(Cc2c(C)noc2C)o1
61 | 0% | Cc1ccc(CCC(=O)N[C@H](C2CCNCC2)C2CC(O)C2)cc1C (some centres not stated)
62 | 1% | CS(=O)(=O)N1C[C@@H](C(=O)NC2CCCCCC2)[C@H](c2ccncc2)C1
63 | 0% | CCc1ccc(NC(=O)Cn2ccn3nc4c(c3c2=O)CC(C)CC4)cc1 (configuration not stated)
64 | -2%[70.6 µM] | COCCn1ccc2c(C3=CCOCC3)nc(-c3ccc4cn[nH]c4c3)cc21
65 | 5% | O=C(NCc1ccc(F)cc1)N1CCCCC1c1noc(COc2ccc(F)cc2)n1 (configuration not stated)
66 | -2% | COc1ccc(C(=O)N2CCC(n3cc(-c4nc(C)no4)nn3)C2)cc1F (configuration not stated)
67 | -1% | COc1ccc(NC(=O)c2cc3c(N4CCSCC4)nc(C)cn3n2)cc1
68 | 1% | O=C(C1CC1)N1CCC(N2CC3CC(C2)[C@H]2CCCC(=O)N2C3)CC1 (some centres not stated)
69 | 6% | COc1cccc(CCC(=O)NC2CCc3nn(CC4CC4)c(=O)n3CC2)c1 (configuration not stated)
70 | -12% | COc1ccc(-c2ccc3nc(-c4ccccc4Br)oc3c2)c(OC)c1OC
71 | -14%[70.6 µM] | COc1ccc(C2=NOC3(CCN(Cc4cccn4C)C3)C2)cc1 (configuration not stated)
72 | 1% | COc1ccc(CC(=O)N2CCC(Nc3nccnc3OC)CC2)cc1
73 | 3% | CCC(c1cccs1)N1C(=O)[C@H]2CN(CCC(C)C)C[C@H]2C1=O (some centres not stated)
74 | -2% | O=C1CCN(Cc2cccnc2)CCCC(c2nc(-c3cccnc3)no2)CCN1 (configuration not stated)
75 | -2% | COc1ccc2[nH]c3c(c2c1)CCNC31CCN(C(=O)c2cccn2C)CC1

From entry 50 as far as 75, copied from above:
No. | hNpr1 antagonist | canonical_smiles
50 | 9%[70.6 µM] | COCCNC(=O)C[C@@H]1C[C@H]2O[C@H](CNC3Cc4ccccc4C3)[C@@H](O)[C@H]2O1
51 | -7% | Cn1cnnc1CC1CCCNC1 (configuration not stated)
52 | 0% | CCOc1ccccc1NC(=O)C1CC(=O)N(c2n[nH]c3ccccc23)C1 (configuration not stated)
53 | 1% | COc1ccc(OCC2CCN(CC3(O)CCCNC3)CC2)cc1 (configuration not stated)
54 | 2%[70.6 µM] | Cc1noc2c(-c3cccc(CO)c3)cc(-c3cccs3)nc12
55 | -2% | COCCN1C(=O)c2ccccc2C(C(=O)NCc2ccccc2)C12CCCC2 (configuration not stated)
56 | -10% | COc1ccc(C(=O)Nc2nc3c(s2)C[C@@H]2[C@](C)(CO)[C@H](O)CC[C@@]2(C)[C@@H]3CC(=O)NC2CCCC2)cc1
57 | -2% | O=C(CCC1CCN(S(=O)(=O)c2ccccc2F)CC1)NCCN1CCOCC1
58 | 2%[70.6 µM] | CN1[C@@H](CCC(=O)NCc2ccccc2)CNC(=O)[C@@H]2[C@H]1CCN2Cc1cccs1
59 | -18%[70.6 µM] | CN1Cc2ccc(NCc3ccccc3)nc2C(C)(C(=O)NCc2ccccc2)C1 (configuration not stated)
60 | 11% | CNC(=O)[C@@H]1C[C@H](Oc2cccnc2)CN1C(=O)c1ccc(Cc2c(C)noc2C)o1
61 | 0% | Cc1ccc(CCC(=O)N[C@H](C2CCNCC2)C2CC(O)C2)cc1C (some centres not stated)
62 | 1% | CS(=O)(=O)N1C[C@@H](C(=O)NC2CCCCCC2)[C@H](c2ccncc2)C1
63 | 0% | CCc1ccc(NC(=O)Cn2ccn3nc4c(c3c2=O)CC(C)CC4)cc1 (configuration not stated)
64 | -2%[70.6 µM] | COCCn1ccc2c(C3=CCOCC3)nc(-c3ccc4cn[nH]c4c3)cc21
65 | 5% | O=C(NCc1ccc(F)cc1)N1CCCCC1c1noc(COc2ccc(F)cc2)n1 (configuration not stated)
66 | -2% | COc1ccc(C(=O)N2CCC(n3cc(-c4nc(C)no4)nn3)C2)cc1F (configuration not stated)
67 | -1% | COc1ccc(NC(=O)c2cc3c(N4CCSCC4)nc(C)cn3n2)cc1
68 | 1% | O=C(C1CC1)N1CCC(N2CC3CC(C2)[C@H]2CCCC(=O)N2C3)CC1 (some centres not stated)
69 | 6% | COc1cccc(CCC(=O)NC2CCc3nn(CC4CC4)c(=O)n3CC2)c1 (configuration not stated)
70 | -12% | COc1ccc(-c2ccc3nc(-c4ccccc4Br)oc3c2)c(OC)c1OC
71 | -14%[70.6 µM] | COc1ccc(C2=NOC3(CCN(Cc4cccn4C)C3)C2)cc1 (configuration not stated)
72 | 1% | COc1ccc(CC(=O)N2CCC(Nc3nccnc3OC)CC2)cc1
73 | 3% | CCC(c1cccs1)N1C(=O)[C@H]2CN(CCC(C)C)C[C@H]2C1=O (some centres not stated)
74 | -2% | O=C1CCN(Cc2cccnc2)CCCC(c2nc(-c3cccnc3)no2)CCN1 (configuration not stated)
75 | -2% | COc1ccc2[nH]c3c(c2c1)CCNC31CCN(C(=O)c2cccn2C)CC1

Next part
No. | hNpr1 antagonist | canonical_smiles
76 | -6% | COc1ccc(-c2noc([C@@H]3CCCN3C(=O)c3cc(F)cc(F)c3)n2)cc1OC
77 | 3% | CN1CCCCCCN(C(=O)Cc2cccnc2)[C@@H]2CCC[C@@H]2C1=O
78 | 1%[70.6 µM] | CC1=C[C@@H](CNC(=O)Nc2ccccc2)[C@H](C(C)C)C[C@H]1CC(=O)NCCN(C)C
79 | 3% | CC[C@@H]1[C@@H](NC(=O)c2cc(C)nc3c2c(=O)[nH]c(=O)n3C)[C@@H]2CCO[C@H]12
80 | -2% | COCCN1C(=O)CS(=O)(=O)C12CCN(C(=O)Cc1ccc(Cl)cc1)CC2
81 | 0% | Cc1ccc(C2Cn3nnc(C(=O)N4CCC(C(=O)NCCN5CCCC5)CC4)c3CO2)cc1 (configuration not stated)
82 | 1% | COc1ccc(C)cc1NC(=O)Cn1c(C)cc2nc3n(c(=O)c21)CCCCC3
83 | 0% | CCn1cc(S(=O)(=O)N[C@@H]2CCOC[C@H]2O)c(C)n1
84 | -1% | CCc1nc(-c2c3n(c(=O)n(CC(=O)Nc4cccc(C)c4C)c2=O)CCCC3)no1
85 | 4% | Fc1cc(F)cc(Cc2nc3nccc(-c4ccncc4)n3n2)c1
86 | 2%[70.6 µM] | Fc1ccccc1CN1CC[C@H](c2nnc(Cc3ccccc3)o2)C1
87 | -4%[70.6 µM] | COCCNC(=O)Cc1c[nH]c2ncc(-c3ccc(OC)cc3)cc12
88 | 6%[70.6 µM] | COc1ccc(CN2C[C@H]3CN(Cc4cccc(C)n4)CCN3C2=O)cc1
89 | 0% | Cc1ccc(O[C@H]2CCOC[C@H]2NC(=O)CCc2c(C)noc2C)cn1
90 | 6% | COc1cccc(CCC(=O)N2CCC3(CC2)NC(=O)N(c2cccc(F)c2)N3)c1

Only part of the results is shown. The share of hits here may be higher or lower than overall.
